High-throughput results from PubChem BioAssay.
D2 agonist = human D2 receptor agonism in beta-arrestin assay; AID 624465; DiscoveRx PathHunter D2 beta-arrestin, luminescence, 90 min; 100% = 57 uM dopamine signal; P14416; actives 0.084% (n = 360,000); activation, % (test concentration not listed); in the data active = activation above about 40%; inconclusive = about 15% to 40%; inactive = below about 15%; note: compound concentration not given in the record; the text of the record calls up to 30% inactive
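Agonist mode: compounds alone added to overnight-plated D2 PathHunter cells for 90 min at 37 C, with 57 uM final dopamine (EC100) defining full response. Beta-arrestin recruitment detected by chemiluminescent reagent, read after 1 h at ambient temperature.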
gsp agonist = activates gsp, the McCune-Albright syndrome mutation | actives 0.13% (n = 340,000) | Potency, µM (highest dose often 76.9 µM), inactives show at the top dose activation (cAMP increase), usual class: activators | gsp mutant cells, cAMP HTRF, 30 min; control for the full effect not named in the record | AID 624287; active = well fitted activation curve with a large enough effect; inconclusive = small, poorly fitted or top-dose-only effect, or another doubt; inactive = no such curve, though single readings can be large or run the other way; cell line not stated here;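 note: phosphodiesterase inhibitor Ro 20-1724 added with compounds to block cAMP breakdown; potency is the fitted concentration of half-maximal effect; nearly all actives have a fitted effect of over 60% in size; about a fifth of the inactives were tested at one dose only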
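Cells in DMEM/10% FBS with G418 were pretreated with compounds in DMSO plus […] (300 uM stock) for 30 min at 37C. cAMP was measured by HTRF (cAMP-d2 plus anti-cAMP antibody-K) after 30 min at room temperature.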
CtBP-E1A inh = CtBP/E1A binding inhibition; AlphaScreen GST-E1A/His-CtBP binding, 1536-well; hits give low values; control for the full effect not named in the record; activity change, % (test concentration not listed); actives 0.49% (n = 340,000); AID 651724; in the data active means activity change below about -65%; inconclusive means about -30% to -65%; inactive means above about -30%; note: % is set by controls: 0 for no effect and ±100 for the full control effect; compound concentration not given in the record
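Steps: dispense buffer (Tris pH 8.0, NaCl 300 mM, TCEP 1 mM, BSA, Tween 20); add 5X protein mix (GST-E1A, His-CtBP, 125 nM each); pin 23 nL compound; 2 h at 37 °C, dark; add 5X beads (50 ug/mL); 1 h; read.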
Six1-Eya2 blk = inhibitors of human Six1/Eya2 interaction; Q15475+O00167; AlphaScreen GST-Six1/His-Eya2 binding, biochemical; hits give low values; control for the full effect not named in the record; activity change, % (concentration not given with the values); actives 0.56% (n = 360,000); in the data active = activity change below about -65%; inconclusive = about -30% to -65%; inactive = above about -30%; note: % is set by controls: 0 for no effect and ±100 for the full control effect
Target sequence (O00167 whole entry, looked up): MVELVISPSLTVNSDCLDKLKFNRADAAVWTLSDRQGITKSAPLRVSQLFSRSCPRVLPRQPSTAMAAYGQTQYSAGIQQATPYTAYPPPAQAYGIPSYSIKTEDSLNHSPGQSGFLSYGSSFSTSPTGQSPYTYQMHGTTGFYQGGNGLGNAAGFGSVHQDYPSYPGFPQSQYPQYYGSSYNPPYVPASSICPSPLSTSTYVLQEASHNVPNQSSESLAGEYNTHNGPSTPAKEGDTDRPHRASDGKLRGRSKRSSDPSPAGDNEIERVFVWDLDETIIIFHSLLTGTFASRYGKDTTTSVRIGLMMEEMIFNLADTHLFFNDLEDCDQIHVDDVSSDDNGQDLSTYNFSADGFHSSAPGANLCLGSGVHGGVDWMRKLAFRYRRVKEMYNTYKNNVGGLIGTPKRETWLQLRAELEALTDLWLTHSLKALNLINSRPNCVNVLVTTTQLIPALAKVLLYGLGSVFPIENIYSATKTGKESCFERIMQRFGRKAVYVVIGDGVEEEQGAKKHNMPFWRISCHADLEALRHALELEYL
Target sequence (Q15475 whole entry, looked up): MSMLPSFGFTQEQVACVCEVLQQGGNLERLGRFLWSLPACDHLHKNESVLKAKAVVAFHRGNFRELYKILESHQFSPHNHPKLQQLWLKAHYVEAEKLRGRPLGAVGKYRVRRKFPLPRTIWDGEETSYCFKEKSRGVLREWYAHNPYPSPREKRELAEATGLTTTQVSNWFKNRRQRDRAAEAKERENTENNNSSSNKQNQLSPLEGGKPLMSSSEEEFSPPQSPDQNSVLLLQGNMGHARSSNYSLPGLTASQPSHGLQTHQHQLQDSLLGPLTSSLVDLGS
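Compounds are tested against tagged Six1 and Eya2 proteins bridged by glutathione donor and nickel acceptor beads; after a one-hour incubation at 37 °C without light, AlphaScreen emission is recorded.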
D2 potentiator = potentiates the human D2 dopamine receptor allosterically; DiscoveRx D2 beta-arrestin cells, luminescence, 90 min; 100% = 57 uM dopamine signal; actives 0.23% (n = 360,000); potentiation, % (no concentration beside the values); P14416; active = potentiation of 50% or more; inconclusive = 30% to 50%; inactive = 30% or less;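 note: compound concentration not given in the record; tested on top of an EC20 dose of dopamine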
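D2 cells co-treated with compound plus 50 nM dopamine (EC20) for 90 min at 37 deg C to detect potentiation. Beta-arrestin recruitment was read as enzyme-fragment luminescence after 1 h at ambient temperature. Full response was set by 57 uM dopamine.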
gsp antag = antagonizes gsp, the McCune-Albright syndrome mutation. gsp-mutant cells, cAMP HTRF, 30 min; control for the full effect not named in the record. Potency, µM (series often up to 76.9 µM), for the others: top-dose activity change, negative = inhibition, usual class: inhibitors. actives 0.4% (n = 340,000). AID 624288; active = falling curve of any shape with a large fitted effect; inconclusive = falling curve, mostly with a smaller effect; inactive = flat or rising curve; cell line not stated here;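 note: intracellular cAMP measured with PDE inhibitor Ro 20-1724 present during compound exposure; potency is the fitted concentration of half-maximal effect; % is set by controls: 0 for no effect and ±100 for the full control effect; nearly all actives have a fitted effect of over 65% in size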
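HTRF cAMP read-out (cAMP-d2 plus anti-cAMP antibody-K in lysis buffer, 30 min RT). Before lysis, cells are exposed to compounds with […] for 30 min at 37C in DPBS containing Ca/Mg, BSA and Tween 20.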
An asterisk follows results filed as active; ? = inconclusive; / = no result given; [ ] = another dose, or the depositor's remark.

SMILES | D2 agonist | gsp agonist | CtBP-E1A inh | Six1-Eya2 blk | D2 potentiator | gsp antag
CC1CC(C)(C)CC2(C1)NC(=O)N(CC(=O)NCCc1c[nH]c3ccccc13)C2=O (stereo not given) | 2.0 | -3% | 0 | -3 | 6 | -3%
Clc1ccc2c(c1)C1CC2CCN1Cc1ccccc1 (stereo not given) | -1.7 | / | -11 | 3 | -18 | 7%
COc1cc(OC)cc(C(=O)NNC(=O)c2nn(C)c(=O)c3ccccc23)c1 | -2.6 | 2% | -7 | 2 | -16 | -2%
O=C(c1[nH]c(C(F)(F)F)nc1-c1ccccc1)N1CCC(Cc2ccccc2)CC1 | 6.0 | / | 1 | -23 | 0 | /
O=C(OCc1ccc(Br)cc1)c1cc([N+](=O)[O-])ccc1N1CCOCC1 | -0.3 | -117%[inhibitor] | -2 | -18 | -1 | /
O=C(CN1CCOCC1)Nc1ccc(NC(=O)CN2CCOCC2)c(Cl)c1 | 0.6 | 2% | 2 | 4 | 2 | -10%
COc1ccc(NC(=O)CN(C)C(=O)c2ccccc2SCC(=O)N2CCCC2)cc1 | -4.3 | 20%[15.4 µM] | 2 | 0 | -14 | 8%
Cc1cc(=O)oc2cc(OC(C)C)ccc12 | -0.3 | -22% | 8 | 5 | -8 | 7%
COc1cc(/C=C(\C#N)C(=O)c2ccc(O)c(O)c2)cc(I)c1O | -5.2 | / | -6 | ? | 7 | -29%
Cc1ccc(C23OCCN2CCn2nc4ccccc4c23)cc1 (stereo not given) | -1.9 | -31%[inhibitor] | 4 | 0 | -7 | 11%
Cc1cccc(NC(=O)CN(C)S(=O)(=O)c2ccc(Cl)cc2)n1 | -0.5 | -5% | 46 | 0 | -11 | 11%
CCOC(=O)C1=C(C)c2ccccc2N(S(=O)(=O)C(F)(F)F)C1C(=O)OCC (stereo not given) | -1.1 | / | 13 | 22 | -2 | 0%
Cc1ccc(NC(=O)c2cc(S(=O)(=O)NCCC3=CCCCC3)ccc2F)cc1F | 1.5 | 6% | 11 | 5 | -4 | -2%
O=C(NCC(c1ccco1)N1CCCC1)c1cccc(NS(=O)(=O)c2ccc(Br)cc2)c1 (stereo not given) | -1.5 | -13% | -5 | 1 | -20 | -4%
CCOc1ccc(S(=O)(=O)N2CCN(C(=O)c3ccc(Cl)c(S(=O)(=O)N4CCOCC4)c3)CC2)cc1 | -4.2 | 31% | / | -4 | -5 | 2%
COc1ccc(Br)cc1CNC(=O)C1CCN(C(=O)N(C)C)CC1 | -2.6 | -7%[15.4 µM] | -18 | 31 | -4 | -13%
CC1CCCCC12NC(=O)N(CC(=O)OCc1ccccc1Cl)C2=O (stereo not given) | 0.9 | 9%[15.4 µM] | 0 | 12 | -25 | -3%
Cc1ccc2nc(SCC(=O)NCc3cccs3)[nH]c2c1 | 2.5 | -2% | -8 | -3 | -9 | 6%
Cc1ccc(/C=C/S(=O)(=O)NCC(=O)OCC(=O)Nc2ccc(C(=O)N(C)C)cc2)cc1 | -0.3 | 22% | -91* | -9 | 0 | -2%
Cc1ccc(C)c(-c2cc(C(=O)NC3CC3)c3ccccc3n2)c1 | -0.7 | -17% | -13 | 1 | -17 | 5%
CC(=O)NS(=O)(=O)c1ccc(NC(=O)c2ccc(Br)o2)cc1 | -2.5 | -3% | 2 | -1 | -12 | -11%
NC(N)=Nc1nc(-c2ccccc2)c2ccccc2n1 | -1.2 | -34% | ? | ? | -23 | 15%
O=C(c1cnccn1)N1CCN(S(=O)(=O)c2cccc(Cl)c2)CC1 | 0.5 | -8%[15.4 µM] | 12 | 3 | 10 | 6%
Cc1ccc(NC(=S)N(C)Cc2cn(C)c3ccccc23)cc1 | -5.3 | 15% | 0 | -19 | -26 | -4%
O=S(=O)(c1ccccc1)N1CCNc2ccccc21 | 1.0 | -1% | -14 | -11 | -5 | -2%
CCSc1nnc(C)c(=O)n1COC(=O)c1ccc(S(=O)(=O)N2CCCC2)cc1 | -2.0 | 9% | 0 | 2 | -1 | -5%
O=C(COc1coc(CN2CCN(c3ccccc3F)CC2)cc1=O)NC1CCCCC1 | 15 | -2%[15.4 µM] | 5 | 3 | 2 | 1%
N#Cc1ccc(C(=O)Nc2cccc3ccccc23)c(F)c1 | -2.0 | -32% | 10 | 0 | -2 | 0%
COc1ccccc1NCCC(=O)OCC(=O)NCc1ccco1 | 0.6 | -3% | -1 | -7 | 1 | -2%
CCNc1c(NC(=O)c2ccc3c(c2)OCO3)c(=O)oc2ccccc12 | -2.2 | -16% | / | 4 | -3 | -5%
Cc1onc(-c2c(F)cccc2Cl)c1C(=O)OCC(=O)NCc1ccco1 | 2.3 | 20% | -4 | -2 | -9 | 0%
CC(=O)Cc1nsc(NC(=O)c2ccc(COc3cccc(C)c3)o2)n1 | -4.0 | -72%[inhibitor] | -12 | -2 | -9 | -10%
CCN(C(=O)COC(=O)/C=C/c1ccccc1Cl)c1c(N)n(Cc2ccccc2)c(=O)[nH]c1=O | -10 | 3% | -8 | 7 | 3 | 1%
CCCN(CC(=O)Nc1ccc(F)c(F)c1F)C(=O)c1cc([N+](=O)[O-])ccc1N1CCOCC1 | 1.4 | -27% | -3 | 0 | -7 | 2%
Cc1ccc(-c2cc(NC=O)c3ncc(-c4cnn(C)c4)n3c2)cc1 | -2.7 | / | -13 | -11 | -14 | /
COc1ccc(C2C(C#N)=C(N)N(c3cccnc3)C3=C2C(=O)CC(C)(C)C3)cc1OC (stereo not given) | -12 | 6% | 3 | 13 | -12 | -13%

Some of the entries above, set out differently:
Every second line gives: D2 agonist, gsp agonist, CtBP-E1A inh, Six1-Eya2 blk, D2 potentiator, gsp antag
Cc1onc(-c2c(F)cccc2Cl)c1C(=O)OCC(=O)NCc1ccco1
  2.3, 20%, -4, -2, -9, 0%
CC(=O)Cc1nsc(NC(=O)c2ccc(COc3cccc(C)c3)o2)n1
  -4.0, -72%[inhibitor], -12, -2, -9, -10%
CCN(C(=O)COC(=O)/C=C/c1ccccc1Cl)c1c(N)n(Cc2ccccc2)c(=O)[nH]c1=O
  -10, 3%, -8, 7, 3, 1%
CCCN(CC(=O)Nc1ccc(F)c(F)c1F)C(=O)c1cc([N+](=O)[O-])ccc1N1CCOCC1
  1.4, -27%, -3, 0, -7, 2%

Next part:
SMILES | D2 agonist | gsp agonist | CtBP-E1A inh | Six1-Eya2 blk | D2 potentiator | gsp antag
COc1ccccc1CNc1ncc(-c2ccccc2)n1C | -6.4 | 39% | -9 | -7 | -7 | -5%
CN(Cc1cnccn1)C(=O)CC1C(=O)NCCN1Cc1cccc(Oc2ccccc2)c1 (stereo not given) | -4.3 | 20% | -2 | -11 | -14 | 2%
CCCCn1c(CNC(=O)C(C)(C)C)nc2ccccc21 | -0.8 | 1% | -4 | 3 | 2 | 6%
CC(=O)C1(O)C(C)CC2C3CCC4CC(O)CCC4(C)C3=CCC21C (stereo not given) | 1.5 | -5% | 9 | 7 | -13 | -2%
COC(=O)CC1C(=O)NCCN1C(=O)c1c(F)cccc1F (stereo not given) | -2.5 | -21%[15.4 µM] | 4 | -6 | -3 | 5%
O=C(COc1ccc(Cl)cc1)NCc1nnc(SCC(=O)N2CCCc3ccccc32)o1 | 2.2 | 2% | -4 | 0 | 2 | -11%
COc1cccc(CN(C)C(=O)CCN=C2NS(=O)(=O)c3ccccc32)c1 | -4.4 | 3% | 2 | -2 | -3 | 18%
O=C(Nc1cccc2c1CCCC2)c1ccc(F)cc1 | -3.6 | -1%[15.4 µM] | 2 | -19 | -9 | 12%
O=C1c2ccccc2NC2(CCCC2)N1O | -2.3 | 2% | -2 | 0 | -4 | 2%
COc1cc(OC)cc(C(=O)N2CCN(C(=O)c3ccc(OC)c(OC)c3)CC2)c1 | -3.9 | ? | 9 | 2 | 19 | -4%
CN(/N=C/c1ccc(O)cc1O)c1nc(-c2ccccc2)cc(-c2ccccc2)n1 | 1.5 | -37%[inhibitor] | 0 | -20 | -37 | -2%
CC(C)CC(=O)NC(=S)Nc1ccc(N2CCCC2)c(Cl)c1 | -3.1 | -13%[15.4 µM] | -8 | -26 | -6 | -2%
CC(Oc1ccc(Cl)cc1Cl)C(=O)NC1=NN(c2ccccc2)C(=O)C1 (stereo not given) | 1.1 | 4% | 0 | -4 | 20 | 0%
CCCn1c(N)c(N(CCOC)C(=O)c2cc(C)cc(C)c2)c(=O)[nH]c1=O | -2.6 | 0% | 2 | 8 | -7 | 7%
CCCCN(C(=O)c1ccc2c(c1)OCO2)c1c(N)n(CCCC)c(=O)[nH]c1=O | 1.7 | -2%[15.4 µM] | 6 | 2 | -9 | -5%
COc1ccccc1N1CCN(C(=O)c2ccc(Cn3c(=O)[nH]c4ccsc4c3=O)cc2)CC1 | 7.4 | ? | -6 | 2 | 15 | ?
COc1ccc(NC(=O)C2CCCN(c3cnccn3)C2)cc1 (stereo not given) | -3.2 | -18% | / | 2 | -4 | -14%
Cc1[nH]nc(SCC(=O)NC2CCCC2)c1[N+](=O)[O-] | ? | 3% | / | -18 | -6 | 4%
N#Cc1ccc(OCC(=O)N/N=C(\CCC(=O)O)c2cccs2)cc1 | 1.4 | 15%[15.4 µM] | -1 | 1 | -4 | -4%
O=S(=O)(Nc1ccc(Cl)cn1)c1ccccc1 | 1.5 | 5%[15.4 µM] | -1 | 5 | -2 | -14%
O=C(Nc1ccc2c(c1)OCCO2)C1CCCN(S(=O)(=O)c2cccs2)C1 (stereo not given) | -2.5 | -31%[inhibitor] | -5 | -5 | -1 | -17%
Cc1ccc(C(=O)Nc2cccc(-c3cn4ccccc4n3)c2)cc1 | 4.1 | ? | -2 | -17 | 4 | -2%
Cc1cc(N/N=C/c2cccc(Cl)c2)nc(NCc2ccccc2)n1 | 0.6 | -29% | 4 | 5 | -10 | -10%
CCOC(=O)Cc1nnc(NC(=O)c2ncn[nH]2)s1 | -0.5 | 26% | -71* | ? | -4 | 3%
O=C1OCCN1C(=O)[C@H]1[C@H](c2ccc([N+](=O)[O-])cc2)C(c2cccc(Cl)c2)=NN1c1ccccc1 | -0.2 | / | -12 | -13 | 8 | -1%
Cc1cccc(NC(=O)c2cc(=O)c3ccccc3o2)c1 | -0.7 | -7%[15.4 µM] | 0 | -11 | -14 | -1%
CCN(CC)S(=O)(=O)c1ccc(NC(=S)NC(=O)C2CCC2)cc1 | -1.4 | -49%[inhibitor] | 5 | -4 | -9 | -12%
Cc1cc(NC(=O)c2ccco2)sc1C | -2.6 | -14% | -7 | -6 | -1 | ?
CCCN(c1ccc(OCC)cc1)S(=O)(=O)c1ccc2c(c1)CCN2C(=O)CCC(=O)O | 2.0 | 6% | -9 | 0 | -7 | -23%
COc1ccc(CN2CCC(C)(Oc3ccc(C(C)=O)cc3)C2)c2ccccc12 (stereo not given) | 6.7 | / | 0 | -9 | -8 | /
COc1cccc(CN2CC(C(=O)NC3CCCCCC3)CCC2=O)c1 (stereo not given) | -1.8 | -60%[inhibitor] | -3 | 6 | -8 | 3%
